Screens (PubChem BioAssay)
miR-21 FLuc: raises the signal of a miR-21 reporter. Potency, µM (highest dose often 38.3 µM), inactives show top-dose reporter change, positive = more light. 340,000 tested, under 10 active. HeLa miR-21 FLuc reporter, luciferase, 48 h; active = well fitted rising curve with a large enough effect; inconclusive = small, poorly fitted or top-dose-only effect; inactive = no such curve, though single readings can be large or run the other way;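 also: % of control where 0% means no effect; miR-21 action dims this reporter so a rising signal means less miR-21 action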
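HeLa miR-21-FLuc reporter line, endogenous miR-21; 2000 cells/well in DMEM/10% FBS; compound titration up to ~40uM final, 48 h, 37 degree Celsius; luciferase detection reagent, 15 min lysis, CCD luminescence.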
The depositor's hits bear a star; ? = inconclusive; [ ] = dose if it differs, or a comment.

miR-21 FLuc	SMILES
0%	Cc1ccc2c(=O)cc(C(=O)Nc3c(C(=O)c4ccccc4)oc4ccccc34)oc2c1C
-1%	CCOC(=O)c1noc2ncn(CC(=O)Nc3cccc(C(F)(F)F)c3)c(=O)c12
-2%	COc1ccc(Cl)cc1C(=O)Nc1sc2c(c1C(=O)OC(C)C)CCCC2
-29%	CCCCCn1c(=O)[nH]c2cc(C(=O)Nc3ccc(F)c(F)c3)ccc2c1=O
4%	COc1ccc(OC)c(CNc2nc3ccc(C)cc3n3nnnc23)c1
15%	CCOc1ccc(C(=O)NCc2ccc3c(c2)CCN3C(=O)c2ccc(C)cc2)cc1OCC
?	CCOC(=O)N1CCN(Cc2nc3cc(NC(=O)c4ccccc4Cl)ccc3n2C(C)C)CC1
27%	CCC(Sc1nc2c(sc3ccccc32)c(=O)n1CCc1ccc(OC)c(OC)c1)C(=O)N(CC)CC (stereo not given)
0%	Cc1ccccc1N1CC(c2nc3ccccc3n2Cc2ccc(Br)cc2)CC1=O (stereo not given)
0%	Cc1ccc(/C=C/c2onc(C)c2S(=O)(=O)N2CCC(C(=O)Nc3cc(C)ccc3C)CC2)cc1
-1%	COc1ccc(N(C)C(=O)Cn2cnc3sc(C)c(S(=O)(=O)N4CCN(c5ncccn5)CC4)c3c2=O)cc1
-11%	CCc1ccc(NC(=O)Nc2nnc(N(C)C3CCCCC3)s2)cc1
?	CCOC(=O)c1c(NC(=O)COc2ccc(OC)cc2)sc(C(=O)N(CC)CC)c1C
-7%	Cc1ccccc1OCC(=O)Nc1cc(-c2cccc(Br)c2)nn1-c1ccccc1
3%	Cc1ccsc1CN(Cc1ccco1)c1cnc(S(C)(=O)=O)nc1C(=O)Nc1ccc(Cl)cc1
28%	Cc1c(C)n(Cc2ccc(F)cc2)c2ccc(C(=O)Nc3ccc(Cl)cc3)cc12
-13%	COc1ccc(Cn2c(C(=O)O)c(CNC3CCCC3)c3ccc(OC)cc32)cc1
-4%	O=C(COc1ccccc1)Nc1ccc(OCc2cc(=O)n3ccsc3n2)cc1
-9%	O=C(CCCn1c(=O)c2sccc2n(Cc2ccc(Cl)cc2)c1=O)NCc1ccc2c(c1)OCO2
-3%	Cc1ccc(CNC(=O)CN2C(=O)C3(SCC(=O)N3c3ccc(F)c(F)c3)c3ccccc32)cc1 (stereo not given)
-1%	COc1ccc(NC(=O)Cn2nc(C)c3c(C)n(-c4ccccc4)nc3c2=O)cc1OC
22%	COc1ccc(N2CCN(c3cc(C)nc4nncn34)CC2)cc1
-6%	CC(=O)Nc1cccc(NC(=O)CSc2cn(CC(=O)N3CCCC3)c3ccccc23)c1
?	CC(=O)c1cccc(NC(=O)C2CCN(C(=O)c3cnn(-c4ccccc4)c3-n3cccc3)CC2)c1
-1%	CCOC(=O)c1noc2ncn(Cc3ccc([N+](=O)[O-])cc3)c(=O)c12
-14%	Cc1ccc2nc(N3CCC(C(=O)NCc4ccc(F)cc4)CC3)[nH]c2c1
18%	COc1ccc(CCNC(=O)Cn2c(=O)c3cccn3c3ccccc32)cc1OC
-9%	Cc1nc(-n2nc(C)c(CCC(C)C)c2C)sc1C(=O)Nc1cccc(Cl)c1
2%	CN(C)c1ccc(CNC(=O)CCC(=O)N2Cc3ccccc3Oc3ncccc32)cc1
-1%	Cc1ccc(C)c(Cn2nnc(C(=O)NCc3ccccc3)c2N)c1
1%	O=C(NCc1cccnc1)c1nn(-c2ccc(F)cc2)nc1CO
2%	COc1ccc(OC)c2sc(NC(=O)c3ccc(S(=O)(=O)N4CCCC4)cc3)nc12
7%	CC(C)Oc1ccc(CNC(=O)c2ccc(CS(=O)c3cccc(Cl)c3)o2)cc1 (stereo not given)
20%	O=C(CCC1CCCC1)N1CCc2c([nH]c3ccccc23)C1c1ccc(F)cc1 (stereo not given)
-8%	Cc1ccc(C(C)C)c(OCC(=O)Nc2ccc(C(=O)OC3CCCCC3)cc2)c1
-3%	CCn1cc(S(=O)(=O)c2ccc(C)cc2C)c(=O)c2cc(F)c(N3CCCCC3)cc21
-2%	CN(Cc1ccccc1)S(=O)(=O)c1ccc(F)c(C(=O)Nc2ccccc2C(F)(F)F)c1
4%	Cc1cc(C)cc(NC(=O)CSCn2nnc3c(=O)[nH]c(Cc4ccc(F)cc4)nc32)c1
4%	CCN(CC)c1ccc(NC(=O)C2CCN(S(=O)(=O)c3c(C)noc3/C=C/c3ccccc3F)CC2)c(C)c1
-46%	Cc1ccc2nc(-c3ccc(NC(=O)COc4ccc(Cl)c(C)c4)cc3)sc2c1
1%	Cc1cc(C)cc(OCC(=O)NCC2(N(C)C)CCCCC2)c1
-12%	Cc1cccc(OCC(=O)OCc2cc(=O)n3nc(-c4cccs4)sc3n2)c1
23%	CC(Sc1cn(CCNC(=O)c2ccccc2F)c2ccccc12)c1ccccc1 (stereo not given)
-1%	COC(=O)c1cc(NC(=O)CC2C(=O)OCCN2Cc2ccccc2)cc(C(=O)OC)c1 (stereo not given)
-2%	Cn1c(C(=O)N2CCC(C(=O)NCCc3ccc(S(N)(=O)=O)cc3)CC2)cc2sccc21
11%	CC(=O)c1cccc(NC(=O)c2nc3ccccc3nc2N2CCCCC2)c1
2%	CCC(O)c1nc2ccccc2n1CCOc1cc(C)cc(C)c1 (stereo not given)
-1%	CC(=O)N1CCOc2cc(S(=O)(=O)Nc3c(C)cccc3C(C)C)c(Cl)cc21
-3%	CCOC(=O)c1c(C)oc2nc(C)nc(NCCCN3CCN(c4ccccc4OC)CC3)c12
-3%	COc1ccc(S(=O)(=O)N2CCC(C(=O)NC(C)c3ccccc3)CC2)cc1 (stereo not given)

(further entries)
miR-21 FLuc	SMILES
1%	CCCCC1CCC(C(=O)NCC(c2ccco2)N2CCOCC2)CC1 (stereo not given)
1%	Cc1c(NC(=O)c2ccc(N3CCC(C)CC3)c([N+](=O)[O-])c2)cccc1-c1nc2ccccc2o1
-12%	CCc1ccc(C(=O)c2cn(CC(=O)Nc3ccc4c(c3)OCO4)c3cc(OC)c(OC)cc3c2=O)cc1
11%	Cc1sc2ncn(CC(=O)N(C)c3ccc(Br)cc3)c(=O)c2c1S(=O)(=O)N1CCC(C)CC1
-43%	CCOc1ccc2nc(N(Cc3cccnc3)C(=O)c3cccs3)sc2c1
-23%	Cc1ccc(CNC(=O)C2CCN(c3nn4cc(-c5ccc(F)cc5)nc4s3)CC2)cc1
-7%	O=C(Nc1ccc(NC(=O)c2cccs2)cc1)c1ccc(Cl)cc1
?	Cc1ccc(C(=O)N2CC(=O)Nc3ccc(Br)cc3C2c2ccc(F)cc2)cc1C (stereo not given)
21%	Cc1ccc(NC(=O)c2oc3ccc(S(=O)(=O)N(C)C4CCCCC4)cc3c2C)c(C)c1
-4%	Cc1ccc(Nc2c(-c3ccccc3O)nc3ccc(Br)cn23)cc1

Compounds listed so far containing a CF3 group (2):
miR-21 FLuc	SMILES
-1%	CCOC(=O)c1noc2ncn(CC(=O)Nc3cccc(C(F)(F)F)c3)c(=O)c12
-2%	CN(Cc1ccccc1)S(=O)(=O)c1ccc(F)c(C(=O)Nc2ccccc2C(F)(F)F)c1

Reprinted at random: 5 compounds from above.
miR-21 FLuc	SMILES
-4%	Cc1ccc(Nc2c(-c3ccccc3O)nc3ccc(Br)cn23)cc1
-12%	CCc1ccc(C(=O)c2cn(CC(=O)Nc3ccc4c(c3)OCO4)c3cc(OC)c(OC)cc3c2=O)cc1
1%	Cc1c(NC(=O)c2ccc(N3CCC(C)CC3)c([N+](=O)[O-])c2)cccc1-c1nc2ccccc2o1
1%	CCCCC1CCC(C(=O)NCC(c2ccco2)N2CCOCC2)CC1 (stereo not given)
11%	Cc1sc2ncn(CC(=O)N(C)c3ccc(Br)cc3)c(=O)c2c1S(=O)(=O)N1CCC(C)CC1

(continued)
miR-21 FLuc	SMILES
-3%	Cc1ccc(Cc2nc3ccccc3nc2SCC(=O)N2CCc3ccccc32)cc1
22%	CCOc1ccc(CCNC(=O)C2CCCN(S(=O)(=O)N(C)c3ccc(F)cc3)C2)cc1 (stereo not given)
-37%	COc1cccc(C2=NS(=O)(=O)N(C)C(C(=O)Nc3ccccc3SC)=C2)c1
?	COc1ccccc1-c1cc2nc(C)c(CCC(=O)NCCc3ccc(SC)cc3)c(C)n2n1
?	Cc1oc(-c2ccccc2F)nc1Cn1c(SCc2cccc(Cl)c2)nc2ccncc21
-32%	Cc1ccc(-n2c(SCC(=O)N3CCC(C)CC3)nc3c([nH]c4ccccc43)c2=O)cc1
0%	COc1ccc(Cl)cc1NC(=O)c1nc(S(C)(=O)=O)ncc1N(Cc1ccc(C)cc1)Cc1ccco1
1%	COc1cccc(CNC(=O)C2CCC(CNS(=O)(=O)c3cccs3)CC2)c1 (stereo not given)
18%	COc1ccc(-c2onc(C)c2C)cc1S(=O)(=O)N1CCc2ccccc21
-1%	Cn1c(=O)c2c(nc(N3CCOCC3)n2Cc2ccc(Br)cc2)n(C)c1=O

Reformatted field by field: part of the list above.
Cc1ccc(Cc2nc3ccccc3nc2SCC(=O)N2CCc3ccccc32)cc1
  miR-21 FLuc = -3%
CCOc1ccc(CCNC(=O)C2CCCN(S(=O)(=O)N(C)c3ccc(F)cc3)C2)cc1 (stereo not given)
  miR-21 FLuc = 22%

The list goes on.
miR-21 FLuc	SMILES
4%	Cc1ccc([N+](=O)[O-])cc1S(=O)(=O)N1CCn2cccc2C1c1ccc(F)c(F)c1 (stereo not given)
-2%	Cc1ccc(NC(=O)CSc2nc(=O)n(CCN3CCOCC3)c3c2CCC3)c(C)c1
18%	COc1cc(NC(=O)c2cc3cc4ccc(C)cc4nc3o2)cc(OC)c1OC
10%	CCCN(C(=O)CCc1nc(-c2ccccc2F)no1)c1ccc(CC)cc1
9%	COc1ccc(NC(=O)Cn2cnc3sc(C)c(S(=O)(=O)N4CCN(C)CC4)c3c2=O)cc1Cl
?	Cc1ccc(CN2CCC(CNC(=O)Nc3cccc(C)c3C)C2)cc1 (stereo not given)
-3%	Cc1ccc(-c2nc(CSc3nnc(C)n4c3cc3occc34)c(C)o2)cc1
-3%	CN(C)CCNC(=O)C1CCN(c2nc3ccccc3[nH]2)CC1
-3%	O=C(NCCCN1CCCCCC1)c1ccc2c(c1)sc1nc(-c3ccccc3)cn12
2%[7.66 µM]	O=C1C2=C(C(=O)c3ccccc31)C1O[C@](c3ccsc3)(Cc3ccccc31)O2

Sorted by molecular weight (smallest number first): part of the list above.
miR-21 FLuc	SMILES
18%	COc1ccc(-c2onc(C)c2C)cc1S(=O)(=O)N1CCc2ccccc21
-6%	CC(=O)Nc1cccc(NC(=O)CSc2cn(CC(=O)N3CCCC3)c3ccccc23)c1
-1%	COc1ccc(N(C)C(=O)Cn2cnc3sc(C)c(S(=O)(=O)N4CCN(c5ncccn5)CC4)c3c2=O)cc1

Next part
miR-21 FLuc	SMILES
-45%	COc1ccc(NC(=O)Cn2nnc(C(=O)Nc3ccc(C)c(F)c3)c2N)cc1Cl
-4%	COc1cccc(NC(=O)C(Cc2ccccc2)N2Cc3ccccc3C2=O)c1 (stereo not given)
-1%	Fc1ccc(C(NCCc2ccc(Cl)cc2)c2nnc(-c3ccccc3Cl)o2)cc1 (stereo not given)
-1%	Cc1ccc(CNC(=O)c2c(-c3ccc(F)cc3F)noc2C)o1
-7%	COc1ccc(CNC(=O)Cn2ncn3nc(-c4cccs4)cc3c2=O)cc1
-4%	CCOc1ccc(C2=CC(c3cc(Br)ccc3F)n3ncnc3N2)cc1Cl (stereo not given)
-4%	Cc1cc(Cl)ccc1NC(=O)CN(c1ccccc1Br)S(C)(=O)=O
16%	O=C(C1COc2cc(S(=O)(=O)Nc3ccc(Cl)cc3)ccc2O1)N1CCCC1 (stereo not given)
25%	COc1cccc(-c2nc3c(C#N)c[nH]n3c2NC2CCCC2)c1OC
-3%	Cc1ccc(NC(=O)N2CCc3cc(S(=O)(=O)N4CCC(C)CC4)ccc32)cc1C
1%	Cc1cccc(CN2CCN(CC(=O)NCc3ccc(Cl)cc3)C2=O)c1
4%	CCC1CN(C(=O)Nc2ccc(C(=O)O)cc2)c2cc(Cl)ccc2O1 (stereo not given)
-2%	Cc1c(C(=O)N2CCC(C(=O)Nc3ccc(F)cc3)CC2)sc2nc[nH]c(=O)c12
27%	COc1ccc(C2c3c(-c4ccccc4O)n[nH]c3C(=O)N2CCc2ccccc2)cc1 (stereo not given)
1%	Cc1ccc2c(=O)cc(C(=O)Nc3nnc(CC(C)C)s3)oc2c1C
28%	CCOc1ccc(NC(=O)C(CC)n2c(=O)c(-c3ccccc3NC(C)=O)nc3ccccc32)cc1 (stereo not given)
5%	CCOC(=O)c1sc2ncn(CC(=O)Nc3ccc(N(C)C)cc3)c(=O)c2c1C
-1%	CCOC(=O)c1sc(NC(=O)C(C)Sc2nc(-c3ccccc3)cc(C(F)(F)F)n2)c(C(=O)OC)c1C (stereo not given)
-5%	CC(C)CNc1ncnc2c1nnn2C
-11%	Cc1ccc(OC(C)C(=O)Nc2nonc2-c2ccc(Br)cc2)cc1C (stereo not given)
5%	COc1ccc(-c2cc(C(C)=O)c(C)n2CCC(=O)NC2CCCCC2)cc1
2%	COc1cc(NC(=O)c2cc(-c3cccc(Cl)c3)on2)c(OC)cc1Cl
-4%	CCCN(C(=O)c1nn(-c2ccc(OC)cc2)c(=O)c2c1c1ccccc1n2C)c1ccc(CC)cc1
2%	COc1ccccc1Cn1c(CNS(=O)(=O)c2ccccc2Cl)nc2cccnc21
4%	CCOc1ccc(-c2nnc(SCC(=O)N(CC)c3cccc(C)c3)o2)cc1
28%	COc1ccc(C(=O)c2cnc3ccc(C)cc3c2S(=O)(=O)c2ccccc2)cc1
12%	Cc1ccc(CSc2nc3cccnc3n2Cc2nc(-c3ccccc3F)oc2C)cc1

These rows are one share of the data. The share of hits here may be higher or lower than overall.
